# High-throughput results from PubChem.
# miR-21 reporter – qHTS Assay for Modulators of miRNAs and/orActivators of miR-21 | HeLa miR-21 FLuc reporter, luciferase, 48 h | Potency, µM (titrated, usually from 38.3 µM), inactives show top-dose reporter change, positive = more light | 340,000 tested, under 10 active | AID 2288, 2010; active = well fitted rising curve with a large enough effect; inconclusive = small, poorly fitted or top-dose-only effect; inactive = no such curve, though single readings can be large or run the other way;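 further: % of control where 0% means no effect; miR-21 action dims this reporter so a rising signal means less miR-21 action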
#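 HeLa cells stably expressing CMV-driven firefly luciferase with a downstream miR-21 binding sequence, endogenously expressing miR-21, were treated with titrations (up to about 40uM final) for 48 hours at 37 degree Celsius. Luciferase luminescence was read after lysis.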
# Rango release inh – qHTS Assay for Inhibitors of RanGTP induced Rango (Ran-regulated importin-beta cargo) - Importin beta complex dissociation; Potency, µM (top dose mostly 46.1 µM), for the others: top-dose activity change, negative = inhibition; AID 540253, 2011; Biochemical FRET Rango-importin beta, RanGTP-induced dissociation; 0.071% of 340,000 active; active means falling FRET ratio curve, often poorly fitted, with flat reads before Ran was added; inconclusive means other falling curves, or compound fluorescence or quenching; inactive means flat or rising ratio curve;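 further: potency means the concentration at half of the fitted maximal effect; % of control where 0% means no effect; nearly all actives have a fitted effect of over 45% in size; -100% = wells without RanGTP and RCC1; the record marks most hits as doubtful in a second field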
#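 Rango (0.1 uM)–importin beta (0.25 uM) complex; RanGTP-RCC1 trigger; 45 min RT; CFP/YFP FRET read.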
# Rango complex inh – qHTS Assay for Inhibitors of Rango (Ran-regulated importin-beta cargo) - Importin beta complex formation | 0.031% of 340,000 active | Importin subunit beta-1 (Homo sapiens), Q14974 | Rango CFP/YFP FRET sensor + importin beta, 45 min | Potency, µM (titrated, usually from 92.2 µM), for inactives: top-dose inhibition of complex formation; active = rising FRET ratio curve, often small or poorly fitted; inconclusive = mostly compound fluorescence or quenching in the first reads; inactive = flat curves in all reads;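 further: potency means the concentration at half of the fitted maximal effect; 0% = DMSO wells and 100% = buffer wells lacking importin beta; nearly all actives have a fitted effect of over 15% in size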
# Target sequence (Q14974 whole entry, looked up): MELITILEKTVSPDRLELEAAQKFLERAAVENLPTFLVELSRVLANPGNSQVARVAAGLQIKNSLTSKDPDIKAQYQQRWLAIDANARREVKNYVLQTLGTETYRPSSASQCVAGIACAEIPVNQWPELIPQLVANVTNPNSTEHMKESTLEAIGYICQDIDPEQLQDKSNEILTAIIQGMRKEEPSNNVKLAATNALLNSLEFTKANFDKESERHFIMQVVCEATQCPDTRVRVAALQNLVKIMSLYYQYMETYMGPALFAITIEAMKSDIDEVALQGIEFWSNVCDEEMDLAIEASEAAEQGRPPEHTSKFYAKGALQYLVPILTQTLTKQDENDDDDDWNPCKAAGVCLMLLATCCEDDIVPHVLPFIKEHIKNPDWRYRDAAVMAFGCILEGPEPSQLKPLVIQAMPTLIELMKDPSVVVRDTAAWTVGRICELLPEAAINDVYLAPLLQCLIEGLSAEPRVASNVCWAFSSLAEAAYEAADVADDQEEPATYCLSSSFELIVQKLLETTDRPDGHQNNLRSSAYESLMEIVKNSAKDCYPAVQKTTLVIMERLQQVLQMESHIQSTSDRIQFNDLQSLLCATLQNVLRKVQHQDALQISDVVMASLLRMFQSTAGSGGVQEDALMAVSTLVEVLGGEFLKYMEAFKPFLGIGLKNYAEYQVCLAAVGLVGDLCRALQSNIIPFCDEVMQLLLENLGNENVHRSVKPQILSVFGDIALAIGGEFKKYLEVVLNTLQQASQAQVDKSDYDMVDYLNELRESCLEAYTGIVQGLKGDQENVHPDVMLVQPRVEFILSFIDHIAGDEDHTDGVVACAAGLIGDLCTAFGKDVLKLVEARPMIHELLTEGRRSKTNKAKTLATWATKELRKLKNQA
#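 FRET biosensor Rango (snurportin 1 IBB between N-terminal EYFP and C-terminal Cerulean), 50 nM in PBS/1 mM DTT/0.02% Tween-20/0.1% BSA, preincubated 5 min RT with compound; 0.125 microM importin beta added, 45 min RT, CFP/YFP FRET ratio read.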
# GLA inh pH 4.5 – qHTS Assay for Inhibitors of Human alpha-Galactosidase at pH 4.5; Alpha-galactosidase A (Homo sapiens), P06280; purified enzyme, 4-MU-alpha-Gal fluorescence, pH 4.5; 230,000 tested, under 10 active; activity change, negative = inhibition, % at 105 µM; inconclusive = small, poorly fitted or top-dose-only inhibition, or a rising curve; inactive = flat fitted curve, though single readings scatter; no compound was filed as active;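 further: 0% = full activity with enzyme and -100% = basal without enzyme; dose as in the result columns while the protocol names 77 µM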
# Active calls of the source: *; ? = inconclusive; . = no result given; & = joins results of further samples.
compound	miR-21 reporter	Rango release inh	Rango complex inh	GLA inh pH 4.5
CC(NC(=O)c1ccc(F)cc1)C(c1cccs1)N1CCN(C)CC1 (stereo unspecified)	0%	1%	5.5%	7
O=C(NCc1ccc2c(c1)OCO2)C1CCC(CNS(=O)(=O)c2ccccc2)CC1 (stereo unspecified)	0%	20%	-0.9%	-8
CCN(CC(=O)Nc1cc(Cl)ccc1C)C(=O)c1nc2nc(C)cc(C)n2n1	.	1%	6.6%	.
COc1cc(/C=C/C(=O)OCC(=O)Nc2ccc(Cl)cn2)ccc1O	.	?	-1.5%	.
CCOC(=O)CC(NC(=O)c1ccco1)c1ccc(OC)cc1 (stereo unspecified)	-10%	15%	-1.0%	-12
COC(=O)c1c(NC(=O)c2c(OC)cccc2OC)sc2c1C(C(=O)OC)CC2 (stereo unspecified)	-21%	-9%	-1.0%	.
COc1ccc(/C=N/NC(=O)c2cccs2)c2ccccc12	.	4%	3.1%	.
CCCCc1c(O)nc(SCC(=O)N2CCCCC2)[nH]c1=O	-1%	-6%	3.4%	.
CCOC(=O)c1[nH]c2ccc(C(=O)OC)cc2c1C(=O)OCC	11%	-11%	-5.8%	.
O=C(NNC(=O)C12CC3CC(CC(Br)(C3)C1)C2)c1ccccc1F	.	11%	-1.4%	.
Cc1ccc(S(=O)(=O)Nc2c(C(=O)O)[nH]c3ccccc23)c(C)c1	-8%	31%	-1.0%	.
COc1cc(/C=C2/C(=N)N3C(=NC2=O)SN=C3S(C)(=O)=O)ccc1OS(=O)(=O)c1ccc(C)cc1	-2%	?	?	.
Cc1sc(NC(=O)C2CCCO2)c(C(N)=O)c1C (stereo unspecified)	-11%	20%	4.5%	-2
CC1CCN(c2ccc3nnc(CCC(=O)Nc4cc(F)ccc4F)n3n2)CC1	-11%	13%	2.2%	.
Cc1cc(C)n2nc(SCC3COc4ccccc4O3)nc2n1 (stereo unspecified)	-72%	5%	-0.3%	0
N=c1sccn1CC(=O)Nc1cc(Cl)ccc1Oc1ccccc1	16%	-10%	2.0%	-2
O=C(c1cc(-c2ccc(Br)cc2)on1)N1CCc2ccccc2C1	2%	15%	0.0%	.
O=C(Nc1cccc(NC(=O)C2C3CC4OC(=O)C2C4C3)c1)c1ccccc1 (stereo unspecified)	-3%	24%	2.8%	-25
COc1ccc(NS(=O)(=O)c2c(C(=O)N3CCCCCC3)c(C)n(C)c2C)cc1	0%	-18%	1.4%	.
COCCN1C(=O)C(O)=C(C(=O)c2ccco2)C1c1cccc(Oc2ccccc2)c1 (stereo unspecified)	-11%	6%	3.3%	-1
C(=C\c1nc(N2CCCC2)c2ccccc2n1)/c1ccccc1	-6%	-5%	13%	1
O=C(NC1CCCCCC1)c1ccc([N+](=O)[O-])s1	.	-21%	?	.
O=C(COC(=O)c1sc2ccccc2c1Cl)Nc1ncc(Cl)cc1Cl	2%	3%	-2.6%	5
N#Cc1cccc(Cn2cc(C(F)(F)F)ccc2=O)c1	0%	8%	0.0%	-9
COc1ccccc1OCC(=O)Nc1ccc(S(=O)(=O)Nc2onc(C)c2C)cc1	-5%	-10%	1.8%	.

# Looked up by structure from above, 3 records:
compound	miR-21 reporter	Rango release inh	Rango complex inh	GLA inh pH 4.5
COc1ccccc1OCC(=O)Nc1ccc(S(=O)(=O)Nc2onc(C)c2C)cc1	-5%	-10%	1.8%	.
O=C(COC(=O)c1sc2ccccc2c1Cl)Nc1ncc(Cl)cc1Cl	2%	3%	-2.6%	5
COc1cc(/C=C2/C(=N)N3C(=NC2=O)SN=C3S(C)(=O)=O)ccc1OS(=O)(=O)c1ccc(C)cc1	-2%	?	?	.

# (next part)
compound	miR-21 reporter	Rango release inh	Rango complex inh	GLA inh pH 4.5
Cc1cccc(C(=O)Oc2ccc(/C=N/NC(=O)c3cc(O)cc(O)c3)cc2)c1	-10%	9%	-0.9%	.
O=C1c2cccnc2C(=O)N1CNc1ccc(Cl)cc1	-1%	-12%	0.0%	-4
Cn1c(N)c(C(=O)CSc2nc(N)cc(N)n2)c(=O)n(C)c1=O	3%	32%	0.2%	-12
CCCc1cc2c(=O)c(-c3ccccn3)coc2cc1OC	-49%	-6%	0.0%	3
Cc1cccc(N2CCN(C(=O)Cc3ccc(-n4c(=O)[nH]c5ccsc5c4=O)cc3)CC2)c1C	0%	2%	1.8%	-1
CN(Cc1ccccc1F)C(=O)c1ccc2c(=O)n3c(nc2c1)CCC3	.	-3%	-1.9%	.
COc1cccc(OC)c1C(=O)NC(=O)NNc1cc(C(F)(F)F)cc(C)n1	-5%	-9%	3.1%	.
Cc1c(C(c2ccc([N+](=O)[O-])cc2)c2c(C)n(C)n(-c3ccccc3)c2=O)c(=O)n(-c2ccccc2)n1C	0%	11%	0.9%	-6
COc1ccc2cc(-c3cc(C(=O)OCC(=O)NC4CCS(=O)(=O)C4)c4ccccc4n3)ccc2c1 (stereo unspecified)	11%	?	?	3
CC(C)(C)c1ccc(-c2nc3[nH]c(=O)cc(NC(=O)c4ccco4)n3n2)cc1	-26%	23%	2.7%	.
Cc1nnc(SCc2ccc(Cl)cc2Cl)[nH]c1=O	-12%	2%	0.4%	-4
O=C(O)C1=CC[C@@H](c2ccc(Cl)cc2)N(S(=O)(=O)c2ccc(Cl)cc2)[C@H]1c1ccccc1	.	-10%	0.7%	.
COc1ccc(CC(=O)Nc2cc(S(=O)(=O)N3CCOCC3)ccc2N2CCCC2)cc1OC	.	8%	1.6%	.
CN(CC(=O)Nc1ccccc1Cl)C(=O)CSc1nnc(-c2ccco2)n1C	.	2%	-1.0%	.
O=C(Nc1ncc([N+](=O)[O-])s1)c1cccs1	0%&-1%	?	?	.
Cn1nnnc1SCC(=O)N1CCc2ccccc2C1	-16%	-4%	0.5%	8
O=C(N1CCCCC1)C12CC3CC(CC(C3)C1)C2	4%	11%	0.3%	-3
CC(C)[C@H](N)c1cn([C@@H](CO)C(=O)N2CCNCC2)nn1	.	26%	5.1%	.
Cc1cc(NC(=O)COC(=O)c2cc(S(=O)(=O)N3CCOCC3)ccc2N2CCCCC2)no1	-1%	29%	4.1%	-7
COc1ccc(C2C(C(=O)NCCN3CCOCC3)c3ccccc3C(=O)N2C2CCCCC2)cc1 (stereo unspecified)	-31%	6%	0.7%	-1
CCOc1ccc(-c2c(C(=O)N/N=C(\C)c3cccnc3)nnn2-c2nonc2N)cc1	8%	0%	4.1%	.
Cc1ccc(-c2cc(C(=O)NCc3cccnc3)no2)cc1	-39%	18%	-1.5%	-4
COCCN(CC1CCCN(C2Cc3ccccc3C2)C1)C(=O)CCC(F)(F)F (stereo unspecified)	-7%	-9%	-3.4%	.
O=c1c2ccccc2sn1-c1nccs1	0%	26%	-2.6%	-5
COc1ccc(/C=C2\SC(=S)N(CCCC(=O)Nc3cc(C)on3)C2=O)cc1OC	5%	4%	8.1%	.
CCOC(=O)NC(=O)C(=CNNc1ncc(C(F)(F)F)cc1Cl)C(=O)NC(=O)OCC	-8%	35%	2.3%	3
O=c1c2ccccc2cnn1Cc1n[nH]c(=S)n1-c1ccc(Cl)cc1	-5%	19%	-0.8%	3
O=C(Nc1ccc(F)c(Cl)c1)C1CCN(S(=O)(=O)c2cccnc2)CC1	9%	-11%	-4.4%	-3
Cc1cccc(N2CC(C(=O)Nc3ccc4c(c3)OCCO4)CC2=O)c1C (stereo unspecified)	-11%	25%	0.9%	.
CCOc1cc(-c2noc(-c3ccncc3)n2)cc(Br)c1OC	1%	1%	-3.8%	-6
COc1ccccc1C(=O)OCCNC(=O)Cn1cnc2c1c(=O)n(C)c(=O)n2C	0%	1%	-3.7%	-24
COc1ccccc1NC(=S)N(Cc1ccccn1)Cc1ccccc1Cl	-1%	-1%	1.6%	0
COc1ccc(NC(C)=O)cc1NC(=O)CSc1nnc(-c2ccncc2)n1C	-1%	-9%	-0.2%	5
O=C(Nc1ccc2[nH]c(=O)[nH]c2c1)c1c(F)c(F)c(F)c(F)c1F	-4%	-7%	1.1%	0
COc1ccc(OC2CCN(S(=O)(=O)c3ccc(OC)cc3)CC2)cc1	11%&0%	4%	0.3%	.
O=c1c2ccccc2nc(-c2ccccc2)n1Cc1ccccc1	-69%	-3%	-1.9%	-4
Cc1oc(-c2ccccc2)nc1C(=O)O	0%	2%	1.3%	-2
COc1cc(/C=C/C(=O)OCC(=O)N2CCN(S(=O)(=O)c3ccc(C)cc3C)CC2)ccc1O	-3%	?	?	-5
C#CCOCCOCCOCCNc1nc(N2CCN(C(=O)[C@H](CCC(=O)O)n3cc(CN)nn3)CC2)nc(N2CCN(C(=O)[C@H](CCCCN)n3cc([C@@H](N)CC(N)=O)nn3)CC2)n1	.	4%	-0.8%	.
CCc1nnc(NS(=O)(=O)c2ccc(N/C=C\C(=O)c3cccc4ccccc34)cc2)s1	-9%	?	?	-5
CC(C)OC(=O)c1ccc(NCc2cc(O)ccc2O)cc1Cl	.	-15%	?	.
CCn1cc(Br)c(C(=O)Nc2ccc(OC)cc2)n1	-51%	15%	-1.7%	4
CCC(=O)Nc1ccc(-c2ccc(NC(=O)CC)c(OC)c2)cc1OC	-20%	11%	-1.2%	7
CC1(C)COCN1S(=O)(=O)c1ccc(C(=O)Nc2nnc(-c3ccc(Cl)s3)o2)cc1	16%	9%	-0.2%	4
CC(Oc1ccc2ccc(=O)oc2c1)C(=O)N1CCOCC1 (stereo unspecified)	.	-3%	0.5%	.
CCC(=O)NC(c1ccccc1OC)c1ccc2cccnc2c1O (stereo unspecified)	?	14%	-0.4%	1
O=S(=O)(NC1CCCCC1NCc1ccco1)c1ccccc1 (stereo unspecified)	-1%	7%	3.4%	4
CC(C)[C@H](NS(=O)(=O)c1ccccc1)C(=O)OCc1cc([N+](=O)[O-])cc2c1OCOC2	.	-4%	-3.2%	.
Cc1cc(OCC(=O)OCC(=O)NC2CCCC2)ccc1Cl	.	12%	0.1%	.
COc1cccc(C(=O)Nc2ccc(-c3nnc(-c4ccco4)o3)cc2)c1	-9%	1%	2.5%	6

# (cont.)
# Below each SMILES: miR-21 reporter, Rango release inh, Rango complex inh, GLA inh pH 4.5
CCC(C)N(C(=O)CSc1nnc(COc2ccccc2F)n1N)C1CCS(=O)(=O)C1 (stereo unspecified)
→ ., 16%, -2.2%, .
OC1CCCN(c2ncnc3c2nnn3Cc2c(F)cccc2Cl)C1 (stereo unspecified)
→ -3%, 12%, -1.6%, -2
O=c1cc(CO)oc(C(Nc2ccccn2)c2ccc(C(F)(F)F)cc2)c1O (stereo unspecified)
→ -3%, -7%, ?, -21
COc1ccc(N2C(=O)CC(Sc3nnnn3-c3ccc(F)cc3)C2=O)cc1 (stereo unspecified)
→ ?, 0%, 0.1%, -21
CC(=O)Nc1cccc(C(=O)OCC(=O)N(c2ccccc2)C2CCS(=O)(=O)C2)c1 (stereo unspecified)
→ ., 2%, -3.4%, .
O=C(COc1cccc2c1CCN(Cc1ccccc1F)C2=O)N1CCOCC1
→ -9%, ., ., 2
CCOC(=O)C1CCN(Cc2cc(=O)n3c(-c4ccccc4)csc3n2)CC1
→ 2%, -16%, -3.3%, -2
O=C(c1ccncc1)N1CCCC(N2CCN(c3ccc(F)cc3)CC2)C1 (stereo unspecified)
→ -35%, -1%, 3.6%, .
COCCCNC(=O)CN(C1CCCCC1)S(=O)(=O)c1ccc(C)cc1
→ -6%, 2%, 8.1%, -2

# This is a subset; count on the stated rates, not on these rows.
